Compound activity as filed in PubChem.
VDR inhibitor – Inhibitors of the vitamin D receptor (VDR): qHTS | Vitamin D3 receptor (Homo sapiens), P11473 | 400,000 tested, 0.93% active | Potency, µM, for the others: max response, negative = inhibition, actives largely listed as inhibitors | VDR-SRC2-3 peptide fluorescence polarization, 2 h; active = well fitted inhibition curve with a large enough effect; inconclusive = small, poorly fitted or top-dose-only effect, or another doubt; inactive = no such curve, though single readings can be large or run the other way; also: series mostly up to about 120 µM
Target sequence (P11473 whole entry, looked up): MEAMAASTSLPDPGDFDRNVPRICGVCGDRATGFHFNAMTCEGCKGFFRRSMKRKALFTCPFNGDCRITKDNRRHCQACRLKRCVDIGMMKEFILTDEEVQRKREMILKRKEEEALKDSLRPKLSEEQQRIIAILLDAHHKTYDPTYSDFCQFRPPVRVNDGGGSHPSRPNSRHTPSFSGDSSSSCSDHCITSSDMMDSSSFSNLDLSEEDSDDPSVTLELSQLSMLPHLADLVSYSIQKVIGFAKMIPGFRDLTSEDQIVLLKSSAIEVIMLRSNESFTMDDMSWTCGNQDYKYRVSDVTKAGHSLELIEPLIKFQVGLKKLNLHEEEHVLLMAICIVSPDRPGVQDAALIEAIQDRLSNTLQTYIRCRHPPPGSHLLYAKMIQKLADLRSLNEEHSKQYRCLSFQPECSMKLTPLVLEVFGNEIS
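Signal is fluorescence polarization, reporting how far test compounds block the interaction of VDR with the SRC2-3 coregulator peptide after a 2 h room-temperature incubation.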
Starred values were filed as active, the others as inactive; ? = inconclusive; & = joins results of further samples; [ ] = dose if it differs, or a comment. % is scaled to controls: 0 for no effect and ±100 for the full control effect; potency is read from the fitted curve at half-maximal effect.

VDR inhibitor | Structure
17% | O=C(Nc1ccc(F)cc1)Nc1ccccc1C(=O)NCCN1CCNC1=O
-19% | O=C(Cn1nc(Cc2cccnc2)c2ccccc2c1=O)NCc1ccc(F)cc1
11% | COc1ccc(-c2cc(C(F)(F)F)nc(SCCC(=O)N3CCOCC3)n2)cc1
-11% | C=CCn1c(=N)c(S(=O)(=O)c2ccc(C)c(C)c2)cc2c(=O)n3ccccc3nc21
-10% | O=C(COc1ccccc1Cl)Nc1ccccc1C(=O)N1CCCCC1
12% | COc1ccc(OCc2ccc(-c3nc4ccccc4c(=O)n3N)o2)cc1
17% | C=CCn1c(SCC(=O)N(C)C2CCS(=O)(=O)C2)nnc1-c1ccccc1 (centres undefined)
19% | COC(=O)c1ccc(NC(=O)COc2ccc3c(c2)OCO3)cc1
0% | O=C(NCc1cccnc1)/C(=N\O)c1ccccc1
2% | CC(C)CC(=O)N1CCN(c2ccc(NC(=O)c3ccco3)cc2)CC1
-4% | COc1cccc(CN2CCNC(=O)C2CC(=O)NCc2cn3cccc(C)c3n2)c1OC (centres undefined)
8% | O=C(Nc1ccc(F)cc1)N1CCN(c2nc3ccccc3s2)CC1
? | CNC(=O)c1c(NC(=O)c2ccc3ncsc3c2)sc(C)c1C
11% | O=C(NC12CC3CC(CC(C3)C1)C2)N1CCN(c2ccccc2)CC1
7% | Cc1cc(C(=O)N(C)Cc2c(F)cccc2Cl)c2ccccc2n1
2% | O=C(CSc1nc(-c2ccccc2)cn1-c1ccccc1)Nc1ccccc1
8% | Cc1cccnc1Oc1ncccc1N
16% | CC1=C(OC(=O)c2ccccc2)C(C)(C)C(c2ccc(Br)cc2)OC1=O (centres undefined)
-7% | CCN(c1ccccc1)S(=O)(=O)c1ccc(Oc2ccccc2C(C)=O)nc1
8% | CCOc1ccc(Nc2ncnc3ccc([N+](=O)[O-])cc23)cc1
-18% | CCOC(=O)CN1C(=O)C(C)(C)Oc2ccc(C(=O)NC(C)(C)CC)cc21
4% | O=C(NCC(=O)N(CCN1CCOCC1)C(C(=O)NC1CCCC1)c1ccccc1)c1cccs1 (centres undefined)
-4% | CN=c1sc(C(=O)Nc2ccccc2)c(C)n1C
-11% | CCCN(C(=O)C1CCN(S(=O)(=O)c2ccc(OC)c(OC)c2)CC1)C1CCS(=O)(=O)C1 (centres undefined)

The closing two entries of the part above lead into the next.
VDR inhibitor | Structure
-4% | CN=c1sc(C(=O)Nc2ccccc2)c(C)n1C
-11% | CCCN(C(=O)C1CCN(S(=O)(=O)c2ccc(OC)c(OC)c2)CC1)C1CCS(=O)(=O)C1 (centres undefined)
-16% | O=C(CN1c2cccc3cccc(c23)S1(=O)=O)Nc1ccccc1F
-14% | CCOc1ccc(OCC(=O)NCc2n[nH]c(=O)c3ccccc23)cc1
1% | Cc1cc(Cl)c(S(=O)(=O)NCc2ccccc2)cc1OCC(N)=O
9% | COc1ccc(S(=O)(=O)N2CCCCCC2)cc1C(=O)N(C)CC(=O)Nc1ccc(F)cc1
-19% | Cc1ccc(NC(=O)CSC2=NN3CCCC(=O)N=C3S2)cc1Cl
-15% | CN(CCOc1ccccc1)CC(=O)Nc1ccc(Br)cc1F
7% | Cc1ccccc1NC(=O)c1ccc2[nH]c(C)c(C)c2c1
5% | COc1ccc(C(=O)C(C)[n+]2ccc(C)c3ccccc32)cc1[N+](=O)[O-] (centres undefined)
12% | Nc1ccccc1C(=O)N1CCCC1
5% | C/C(=N/NC(=O)CNC(=O)c1cccs1)c1ccc(Cl)cc1
-15% | CCOc1ccc(N2CC(NC(=O)c3ccc4ccccc4c3)CC2=O)cc1 (centres undefined)
6% | CCCCCCCC(=O)N1CCN(c2cc3c(cc2F)c(=O)c(C(=O)O)cn3CC)CC1
11% | Cc1ccc2nc(/N=C(\N)NC(=O)N3c4ccccc4Sc4ccccc43)nc(C)c2c1
1% | CCCN(CCC)C(=O)Cn1c(=O)n(CCCCCC(=O)NCc2ccc3c(c2)OCO3)c(=O)c2sccc21
13% | COc1ccc(C(=O)NNc2ncnc3c2cnn3-c2cccc(Cl)c2)cc1OC
-3% | CC(C)(C)OC(=O)N[C@@H](/C=C/c1ccccc1)C(=O)OC(C)(C)C
9% | Cc1ccc(/C=N/NC(=O)c2ccncc2)cc1
0% | COc1cccc(-c2nnn(CC(=O)N3CCCCC3)n2)c1
3% | O=C(N/N=C/c1ccc(Br)s1)c1ccccc1[N+](=O)[O-]
6% | CC(=O)Nc1ccc(S(=O)(=O)N2CCN(CC(O)COc3ccc4ccccc4c3)CC2)cc1 (centres undefined)
-7% | O=C(COC(=O)c1cc(=O)[nH]c2ccccc12)NCc1cccc(Cl)c1
-4% | CC(C)NC(=O)CSCc1c(Cl)cccc1Cl
? | CCOc1cc(/C=C2\CN(CC)C/C(=C\c3ccc(O)c(OCC)c3)C2=O)ccc1O
-24% | O=S1(=O)N[C@H](c2ccccc2)C[C@H](c2ccc(C(F)(F)F)cc2)O1
-7% | O=C(N/N=C/c1ccccc1O)/C(=C/c1ccccc1)CCO
? | CCOC(=O)[C@H]1[C@H]2COc3ccc(C)cc3[C@@H]2N2C(=O)c3cc(C)ccc3NC(=O)[C@@]12C
-17% | O=C(NNc1nc2ccccc2s1)c1ccccc1F
-20% | CCc1ccc(OCc2cnc(Cl)s2)cc1
2% | O=C(O)C1=C[C@H](c2cccs2)C[C@H](OCCCCO)O1
2% | COc1nc(SC)nc(Cl)c1Cc1ccc(OC(C)C)cc1
7% | Cc1cccc2cc(CN(CCCO)C(=O)Nc3cccc(Cl)c3)c(=O)[nH]c12
-14% | O=C(CN1C(=O)c2ccccc2S1(=O)=O)N1CCc2ccccc21
8% | COC(=O)c1cc(C)nc2c1c(=O)nc(SCc1cccc(C(F)(F)F)c1)n2C1CC1
-15% | CCc1nc(N)nc(N)c1-c1ccc(N(C)Cc2ccccc2)c([N+](=O)[O-])c1
2%&12% | CC(=O)Nc1ccc(NC(=O)CCNS(=O)(=O)c2cccc3nsnc23)cc1
5% | O=C(C1CC(=O)N(C2CCCC2)C1)N1CCN(c2ccccc2F)CC1 (centres undefined)

Arranged by the number under VDR inhibitor (low to high): 3 from the list above.
VDR inhibitor | Structure
-4% | CC(C)NC(=O)CSCc1c(Cl)cccc1Cl
1% | CCCN(CCC)C(=O)Cn1c(=O)n(CCCCCC(=O)NCc2ccc3c(c2)OCO3)c(=O)c2sccc21
16% | CC1=C(OC(=O)c2ccccc2)C(C)(C)C(c2ccc(Br)cc2)OC1=O (centres undefined)

Next entries.
VDR inhibitor | Structure
-15% | CC(NCC(=O)NC(=O)NC1CCCC1)c1ccc(Cl)cc1Cl (centres undefined)
1% | O=C(O)C1C2C=CC(O2)C1C(=O)NCCc1cccc(Cl)c1 (centres undefined)
-10% | CC(=O)c1ccc(NC(=O)CC(c2cccs2)N2Cc3ccccc3C2=O)cc1 (centres undefined)
12% | COc1ccc(CC(=O)OCc2csc(CC(=O)Nc3ccc(C)cc3)n2)cc1
9% | COc1ccc(-c2ccnc(-c3ccc(O)cc3)n2)cc1
11% | Cc1cc(C)c(Nc2ncnc(N)n2)c(C)c1
8% | COCCCNC(=O)CCCn1c(=O)c2ccccc2n(Cc2cccc([N+](=O)[O-])c2)c1=O
-17% | O=C(Cc1ncc(C(F)(F)F)cc1Cl)NNc1cccc(F)n1
-1% | COCCN(C(=O)c1ccccc1F)c1nnc(-c2ccc(OC)cc2)s1
-24% | CCc1cc(/C(Cc2ccccn2)=N\Nc2ccccc2)c(O)cc1O
-4% | O=C(CCc1nnc(C2CCCCC2)o1)NCCCOc1cccnc1
12% | O=C(c1ccccc1-c1nc(-c2ccc(F)cc2)no1)N1CCCC1

Quoted at random: three records from the list, in no set order.
VDR inhibitor | Structure
12% | COc1ccc(CC(=O)OCc2csc(CC(=O)Nc3ccc(C)cc3)n2)cc1
9% | COc1ccc(-c2ccnc(-c3ccc(O)cc3)n2)cc1
11% | Cc1cc(C)c(Nc2ncnc(N)n2)c(C)c1

More records
VDR inhibitor | Structure
-10% | CC(CC=O)CCCC(C)(C)O (centres undefined)
-7% | COc1cc(NC(=O)CCc2nnc3ccc(N4CCN(c5cccc(OC)c5)CC4)nn23)cc(OC)c1
-2% | CCCCNC(=O)Cn1c(SCc2ccccc2C)nc2ccncc21
7% | Cc1ccc(C2c3c(-c4ccccc4O)n[nH]c3C(=O)N2CCCO)cc1 (centres undefined)
7% | CCCn1c(=O)c2c(nc3n2CCN3Cc2ccco2)n(C)c1=O
-6% | COc1ccc(CC(=O)Nc2nc3n(n2)C(c2ccccc2)CC(=O)N3)cc1OC (centres undefined)
-12% | O=C1COc2ccc3ccccc3c2CN1
15% | O=C1NC(c2ccccc2)=N/C1=C/c1ccco1
6% | CC(C)c1ccc(NC(=O)C2CCCN(S(=O)(=O)c3cccc4nonc34)C2)cc1 (centres undefined)
8% | C=CCc1cccc(CNc2nc3ccccc3n2CCC)c1O
-7% | Cc1cc(OC(=O)c2ccccc2Br)cc(=O)n1C
-4% | Cc1nnc(SCc2cc(=O)[nH]c(N3CCN(C)CC3)n2)s1
9% | CC1=C(c2ccc(Cl)cc2)S(=O)(=O)NC1=NCc1ccc(C)cc1
0% | CC(=O)Nc1ccc(S(=O)(=O)NC2(C(F)(F)F)C(=O)Nc3c2c(=O)[nH]c(=O)n3C)cc1 (centres undefined)
-8% | CC(=O)N(/N=C1\Sc2ccccc2C1=O)c1cccc(C)c1
6% | CCOC(=O)C1=C(C)NC2=C(C(=O)C(C(=O)OC)C(C)C2)C1c1ccc(OC)c(O)c1 (centres undefined)
5% | CCCc1cc(=O)oc2c(C)c(OC(C)C(=O)NCCN3CCOCC3)ccc12 (centres undefined)
-10% | CCN(CC)C(=O)CCSc1nnc(-c2ccco2)o1
-1% | COC(=O)c1cc(-c2ccccc2)nc2nc(SC)[nH]c(=O)c12
-28% | S=C(Nc1ccccn1)NC1CCCC1
-2% | O=C1c2[nH]nc(-c3ccccc3O)c2C(c2ccc(F)cc2)N1CCO (centres undefined)
-2% | Cc1cc(C)n2nc(SCC(=O)c3cc(C)n(-c4cc(C)on4)c3C)nc2n1
-16% | O=C(c1cc(COc2ccc(F)cc2F)on1)N1CCN(C(=O)c2ccco2)CC1
-4% | COc1cc(NC(=O)c2ccccc2F)c(OC)cc1NC(=O)CN1CCOCC1
-17% | CC(C)c1ccccc1-n1c(SCc2cc(=O)oc3ccc4ccccc4c23)nnc1-c1cccnc1
-2% | COc1ccc(-c2nnc(SCc3ccc(C(=O)O)cc3)o2)cc1OC
-14% | C=C(C)C1CC=C(C)/C(=N/NC(=O)c2ccoc2C)C1 (centres undefined)
6% | O=C1c2ccccc2C(=O)c2c1cccc2N1CCN(Cc2ccccc2)CC1
1% | CSc1ccc(NC(=O)NCCN2CCc3ccccc3C2)cc1
-2% | COc1ccc(-n2nc(C(=O)NCC(=O)NCC3CCCO3)c3ccccc3c2=O)c(OC)c1 (centres undefined)
11% | CCN(CC(=O)NC(C)C)C(=O)Cc1ccc(C)c(C)c1
7% | Cc1ccc(OCc2cc(C(=O)N(C)Cc3cc(C4CC4)n[nH]3)no2)cc1C
25% | Cc1c([N+](=O)[O-])cc(C(=O)NCc2ccc(F)cc2)cc1[N+](=O)[O-]
-16% | CCOC(=O)C1CCN(S(=O)(=O)c2cc(Br)cc3c2N(C(C)=O)C(C)C3)CC1 (centres undefined)
4% | Cn1c(O)c(N=NC(=O)c2ccco2)c2ccccc21
4% | COCCN(C(=O)c1csnn1)C(C(=O)NC(C)(C)C)c1cccc(OC)c1 (centres undefined)
? | COc1ccc(C(=O)c2no[n+]([O-])c2C(=O)c2ccc(OC)cc2)cc1
2% | COc1cccc(CNC(=O)COc2cccc3c2OC(C)(C)C3)c1
-3% | CCOc1ccccc1OCC(=O)Nc1cccc(S(=O)(=O)N2CCCCCC2)c1
-3% | O=C(CCc1nc2ccccc2c(=O)[nH]1)N1CCN(S(=O)(=O)c2ccc(F)cc2)CC1
14% | COc1ccc(S(=O)(=O)Nc2ccc(NC(C)=O)cc2)cc1
-17% | O=C(Cc1ccc(Cl)cc1Cl)OCC(=O)N1CCN(C(=O)c2ccco2)CC1
-1% | O=C(c1ccco1)N1CCN(C(c2cccs2)c2sc3ncnn3c2O)CC1 (centres undefined)
0% | COc1ccc(C(=O)N2CCCC(N3CCN(c4ccccc4OC)CC3)C2)c(OC)n1 (centres undefined)
12% | COc1cc(C2c3c(-c4ccccc4O)n[nH]c3C(=O)N2CCO)ccc1OCC(C)C (centres undefined)
-10% | COc1ccccc1N1CCN(CCNC(=O)Nc2cccc(C)c2C)CC1
4% | COc1cccc(C(=O)Nc2nnc(S(=O)(=O)N3CCCc4ccccc43)s2)c1
9% | Cc1ccc(OCCn2ccnc2)c([N+](=O)[O-])c1
0% | O/N=C1\CCC\C1=C/c1ccco1
-16% | Cc1nc(-c2ccc([N+](=O)[O-])cc2)c(-c2ccccc2)o1
24% | CCCOc1ccc(C(=O)Nc2ccc(S(=O)(=O)N3C[C@@H]4C[C@@H](C3)c3cccc(=O)n3C4)cc2)cc1
-6% | CCCCn1c(N)c(N(CC(C)C)C(=O)c2cccc(S(=O)(=O)N3CCN(C)CC3)c2)c(=O)[nH]c1=O
38%[activator] | COc1ccc(NC(=O)C(NS(=O)(=O)c2ccc3c(c2)CCCN3C(C)=O)C(C)C)c(OC)c1 (centres undefined)
-3% | CC(/C=C/C(=O)c1ccc(C)cc1)=C\c1ccccc1
-7% | O=C(CN1C(=O)CCS(=O)(=O)c2ccccc21)NCCc1ccccc1

2 entries from above, reformatted.
> CC(/C=C/C(=O)c1ccc(C)cc1)=C\c1ccccc1
  VDR inhibitor = -3%

> O=C(CN1C(=O)CCS(=O)(=O)c2ccccc21)NCCc1ccccc1
  VDR inhibitor = -7%

Not all compounds are listed; rates above refer to the full screens.
